Screens (PubChem BioAssay)
RGS16-Gao HTS – modulates binding between human RGS16 and Galphao | O15492+P09471 | bead-based flow cytometry RGS16-Galphao binding, fluorescence; actives lie on both sides | binding response (% of control), % at 10 µM | 220,000 tested, 0.38% active | AID 1441;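 active means below 25% or above 175%, edge rows of some plates excepted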;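 further: Galphao activated by GDP with aluminum fluoride before binding; 100% = wells without compound and 0% = beads without RGS; some results beyond the cut were filed as inactive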
GALR2 ag – GALR2 (human) receptor agonism. O43603. GALR2-expressing cells, agonist activation read-out. activation, %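 (tested at 5 µM)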. 140,000 tested, 0.48% active. AID 803;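 active means above mean plus 3 SD of all compounds, about 5% in these data, not always enough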;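 further: 0% = vehicle buffer wells and 100% = reference agonist at full effect; tested in CHO reporter cells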
HSV replic up – increases HSV replication in cells. HSV replication augmentation in cells, fold increase. maximum fold increase. 220,000 tested, 0.005% active;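 active means peak rise of 1.5-fold or more in the series; tested in PC3 cells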;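 further: first round at 10 µM; read as green reporter fluorescence; hits show the peak of a series up to 25 µM; 1 = signal of infected wells without compound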
Insulin prom inh – TRM-6 insulin promoter activity inhibition; TRM-6 cells (human fetal islet line), insulin promoter-eGFP reporter, imaging; reporter expression induced with tamoxifen; inhibition, % at 2 µM; 130,000 tested, 0.9% active; AID 1273;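 active means inhibition above the mean plus 3 SD, with well images judged a real hit on visual review, cut at about 60% in these data, passing the limit was not always enough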
PKD1 inh – inhibitors of human PKD1 kinase. inhibition, %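 (about 10 µM by stock and volumes)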. 200,000 tested, 0.056% active. AID 797. PKD1 kinase fluorescence polarization assay. Q15139;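 active means inhibition of 50% or more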;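 further: controls were vehicle for no effect and a reference inhibitor for full effect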
Target sequence (Q15139 whole entry, looked up): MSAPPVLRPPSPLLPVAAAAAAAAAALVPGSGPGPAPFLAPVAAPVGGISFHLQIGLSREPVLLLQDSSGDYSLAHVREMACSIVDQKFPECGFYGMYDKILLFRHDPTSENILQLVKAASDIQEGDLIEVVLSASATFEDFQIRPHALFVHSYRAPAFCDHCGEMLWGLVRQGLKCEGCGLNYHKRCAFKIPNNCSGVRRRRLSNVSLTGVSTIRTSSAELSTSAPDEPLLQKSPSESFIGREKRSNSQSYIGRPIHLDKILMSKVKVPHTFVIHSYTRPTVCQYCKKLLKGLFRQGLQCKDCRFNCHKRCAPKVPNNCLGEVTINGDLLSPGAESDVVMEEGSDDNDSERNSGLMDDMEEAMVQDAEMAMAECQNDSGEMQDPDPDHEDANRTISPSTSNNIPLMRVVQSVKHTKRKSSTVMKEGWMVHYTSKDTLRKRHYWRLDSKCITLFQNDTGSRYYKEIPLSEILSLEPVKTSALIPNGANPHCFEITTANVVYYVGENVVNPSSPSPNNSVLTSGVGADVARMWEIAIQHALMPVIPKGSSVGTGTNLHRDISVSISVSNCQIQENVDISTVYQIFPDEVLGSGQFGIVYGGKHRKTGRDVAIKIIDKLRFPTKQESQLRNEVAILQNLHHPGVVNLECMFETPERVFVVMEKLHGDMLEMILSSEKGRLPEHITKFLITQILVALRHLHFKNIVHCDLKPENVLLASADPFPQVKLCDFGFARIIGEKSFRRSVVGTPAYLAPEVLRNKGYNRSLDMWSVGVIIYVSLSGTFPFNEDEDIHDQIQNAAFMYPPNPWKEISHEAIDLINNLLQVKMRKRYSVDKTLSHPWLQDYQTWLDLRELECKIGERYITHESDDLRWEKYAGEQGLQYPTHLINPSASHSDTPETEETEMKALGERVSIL
Insulin prom inh cell count – also measured in Insulin prom inh; calls as there; normalized cell count, %; measured here: cell count, toxicity; reference of the scale not given here;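 cells exposed to compound for 48 h; stained nuclei by imaging scaled within each plate; lower means fewer cells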
HSV replic up primary fold – also measured in HSV replic up; calls as there; fold increase; compound at 10 µM; measured here: primary screen fold increase 10 uM; tested in PC3 cells;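 GFP signal in the first replicate; 1 = infected wells without compound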
* marks the source's active call; other numbers are inactive results; i = inactive; . = not tested or not shown. The order is random, and some 1.3% of all compounds hit somewhere here.

SMILES	HSV replic up primary fold	Insulin prom inh cell count	Insulin prom inh	RGS16-Gao HTS	GALR2 ag	PKD1 inh	HSV replic up
Cc1ccc(N2C(=O)CSC2c2cccnc2)c(Cl)c1 (configuration not stated)	0.96	.	.	101	.	.	i
CCC(CC)C(=O)N=C1SC2CS(=O)(=O)CC2N1CCc1ccc(OC)cc1 (configuration not stated)	0.97	75	0	102	-2.9	-11	i
COc1ccc(CCN2C(=O)c3[nH]nc(-c4ccccc4O)c3C2c2cccc(Cl)c2)cc1 (configuration not stated)	0.82	141	-20	91	1.0	-4	i
O=S(=O)(c1ccc(F)cc1)N1CCN(c2ncnc3c2cnn3-c2ccccc2)CC1	1	.	.	301	-2.3	0	i
c1ccc(-c2cc(-c3nnco3)c3ccccc3n2)nc1	0.97	.	.	97	.	-11	i
Cc1noc(C)c1COc1ccc(C(=O)OCC(=O)NC23CC4CC(CC(C4)C2)C3)cc1	1	135	-12	103	-3.1	-6	i
CC(=O)N(CCC(Cc1ccccc1)c1ccc2c(c1)OCO2)Cc1ccccc1F (configuration not stated)	.	148	29	101	-1.3	-11	.
CCOC(=O)C1(C(F)(F)F)N=C(c2cccnc2)OC(N2CCOCC2)=N1 (configuration not stated)	0.94	137	-100	124	-0.9	3	i
Cn1nc(C(C)(C)C)cc1NC(=O)Nc1ccc(Cl)cc1	0.86	.	.	106	.	.	i
COc1ccc(NC(=S)Nc2cc(C)[nH]n2)cc1Cl	0.91	.	.	95	.	.	i

Compounds from the list above containing a carbonyl joined to an NH by a bond outside any ring (two):
SMILES	HSV replic up primary fold	Insulin prom inh cell count	Insulin prom inh	RGS16-Gao HTS	GALR2 ag	PKD1 inh	HSV replic up
Cc1noc(C)c1COc1ccc(C(=O)OCC(=O)NC23CC4CC(CC(C4)C2)C3)cc1	1	135	-12	103	-3.1	-6	i
Cn1nc(C(C)(C)C)cc1NC(=O)Nc1ccc(Cl)cc1	0.86	.	.	106	.	.	i

Entries above that have fluorine, in the order listed:
SMILES	HSV replic up primary fold	Insulin prom inh cell count	Insulin prom inh	RGS16-Gao HTS	GALR2 ag	PKD1 inh	HSV replic up
O=S(=O)(c1ccc(F)cc1)N1CCN(c2ncnc3c2cnn3-c2ccccc2)CC1	1	.	.	301	-2.3	0	i
CC(=O)N(CCC(Cc1ccccc1)c1ccc2c(c1)OCO2)Cc1ccccc1F (configuration not stated)	.	148	29	101	-1.3	-11	.
CCOC(=O)C1(C(F)(F)F)N=C(c2cccnc2)OC(N2CCOCC2)=N1 (configuration not stated)	0.94	137	-100	124	-0.9	3	i

(list continues)
SMILES	HSV replic up primary fold	Insulin prom inh cell count	Insulin prom inh	RGS16-Gao HTS	GALR2 ag	PKD1 inh	HSV replic up
CCOc1ccc(C2=C(C=C(C#N)C#N)C(c3ccccc3)c3ccccc3O2)cc1 (configuration not stated)	1	72	-10	105	0.8	6	i
COCCCN(C(=O)Nc1cccc(Cl)c1)C(C)c1ccccn1 (configuration not stated)	0.84	31	i	111	-2.6	-11	i
CC(C)(C)c1nc2scc(-c3ccc(Br)cc3)c2c(=O)o1	1	33	-158	110	.	-6	i
O=C(c1ccc(CN2CCOCC2)cc1)N1CCN(c2cccc(Cl)c2)CC1	0.89	60	-41	92	-3.6	-11	i
COc1ccc(C)cc1NC(=O)CSc1nnc(COc2ccc(C)cc2)n1Cc1ccco1	0.91	169	-38	100	-1.1	17	i
Cc1cccc2cc(CN(Cc3cccs3)C(=S)NCc3ccco3)c(=O)[nH]c12	0.91	95	8	100	-1.9	0	i
O=C(/C=C/c1ccc(Cl)cc1Cl)NCc1ccco1	0.83	142	17	102	-0.4	-1	i
O=C(COC(=O)c1cc([N+](=O)[O-])ccc1NCc1ccccc1)NC1CCCCC1	0.96	85	32	168	-0.2	2	i
CCCCC1=CC2=C(c3ccco3)C(=O)C(C)(OC(=O)c3ccc(OC)cc3)C(=O)C2=CN1Cc1ccccc1 (configuration not stated)	1.2	.	.	99	.	.	i
N#C/C(=C\c1ccc(C(=O)O)cc1)S(=O)(=O)c1cc(Br)ccc1Br	0.98	.	.	97	.	-2	i
CC1CCOC(c2coc3ccccc3c2=O)O1 (configuration not stated)	1.1	118	28	112	-1.0	2	i
CCNC(=S)NS(=O)(=O)c1ccc(C)cc1	0.94	.	.	21	-0.3	0	i
CCC(C(=O)O)N1C(=O)/C(=C/c2cccn2C)SC1=S (configuration not stated)	1.1	88	16	96	-1.2	-7	i
Cc1cccc(C)c1NC(=S)NC(=O)CCc1ccccc1	.	.	.	101	-1.5	13	.
CC(C)(C)n1ncc2c(=O)n(CC(=O)c3ccccc3)cnc21	0.92	205	-17	106	-0.4	-6	i
O=C(/C=C/c1ccccc1[N+](=O)[O-])Nc1cccnc1	1.2	.	.	104	-0.4	-5	i
CCc1ncc(/C=C2\C(=O)Nc3ccccc32)[nH]1	1.2	.	.	106	.	.	i
O=C1Nc2ccccc2OC1CC(=O)N1CCN(c2cccc(C(F)(F)F)c2)CC1 (configuration not stated)	0.96	.	.	98	0.0	8	i
O=C(OCn1nnc2ccccc2c1=O)c1ccc(O)cc1	1.1	.	.	103	.	-3	i
COc1cccc2c1OC1(C)CC2/C(=C(\C)O)C(=O)N1 (configuration not stated)	1.2	78*	91*	102	0.1	-1	i
O=C(C1CC1)N1CCN=C1SCc1ccccc1	0.66	.	.	103	-1.8	-7	i
COC(=O)CC1C(=O)NCCN1C(=O)OC(C)(C)C (configuration not stated)	0.83	.	.	100	.	-2	i
N#C/C(=C/c1ccccc1)C(=O)NCc1ccccc1	0.88	.	.	101	.	-5	i
COC(=O)c1ccccc1NC(=O)CSc1n[nH]c(C)n1	0.99	132	0	106	-0.7	-1	i
Cn1c(=O)n(C)c2cc(/C=N/NC(=O)c3cccc(Br)c3)ccc21	0.8	107	11	105	-3.5	-12	i
COC(=O)C1=C(C)OC(N)=C(C#N)C1c1ccsc1 (configuration not stated)	0.9	30	-369	117	-1.5	-8	i
COc1ccc(/C=C2\SC(N3CCc4ccccc4C3)=NC2=O)cc1	0.94	67	-36	46	-1.1	-6	i
O=C(CNC(=O)OCc1ccccc1)Oc1cc2oc(=O)cc(-c3ccccc3)c2cc1Cl	.	103	33	104	0.9	6	.
O=C(Nc1cccc(O)c1)c1cc(S(=O)(=O)N2CCCC2)ccc1Cl	1	84	-38	107	0.7	2	i
O=C(Cc1cccs1)NCc1cn2ccccc2n1	.	.	.	102	-3.8	-10	.

Fetched by compound from the entries so far:
SMILES	HSV replic up primary fold	Insulin prom inh cell count	Insulin prom inh	RGS16-Gao HTS	GALR2 ag	PKD1 inh	HSV replic up
COc1ccc(NC(=S)Nc2cc(C)[nH]n2)cc1Cl	0.91	.	.	95	.	.	i
CCC(CC)C(=O)N=C1SC2CS(=O)(=O)CC2N1CCc1ccc(OC)cc1 (configuration not stated)	0.97	75	0	102	-2.9	-11	i
O=C(/C=C/c1ccc(Cl)cc1Cl)NCc1ccco1	0.83	142	17	102	-0.4	-1	i

Other compounds.
SMILES	HSV replic up primary fold	Insulin prom inh cell count	Insulin prom inh	RGS16-Gao HTS	GALR2 ag	PKD1 inh	HSV replic up
CC(=O)c1cc(CN2C(=O)CCC2=O)cs1	0.82	.	.	103	-0.9	-11	i
COc1cc(OC)cc(-n2nnnc2SCC(=O)N2CCCc3ccccc32)c1	1	.	.	99	0.6	6	i
NC(=O)C(C(=O)/C=C/c1ccc(Cl)cc1)=C1SCCS1	0.64	.	.	100	.	.	i
COC(=O)CSc1nc(N)c2c3c(sc2n1)CCCC3	0.98	.	.	100	0.4	-4	i
O=C(Oc1coc(CSc2ncccn2)cc1=O)c1ccccc1[N+](=O)[O-]	1	127	58	104	.	-3	i
O=c1c(-c2ccccc2)[n+]([O-])c2ccccc2n1O	0.71	120	-63	99	-2.8	6	i
CN(C)S(=O)(=O)c1ccc(NC(=O)CN2CCc3ccccc32)cc1	1	.	.	103	.	.	i
CCN(CC)C(=O)Oc1ccc(Br)cc1C(=O)Nc1ccc(F)cc1F	0.91	.	.	105	.	.	i
C/C(=N\NC(=O)c1ccc(NS(=O)(=O)c2cccs2)cc1)c1ccccc1	0.92	92	-2	97	-1.1	-6	i
CCCOc1ccc(C(=O)CCNc2cccc(Cl)c2)cc1	0.98	.	.	98	.	-4	i
OC(CN(c1ccccc1)c1ccccc1)Cn1cnc2ccccc21 (configuration not stated)	0.92	92	27	99	0.1	0	i
Cc1cc(=O)n2[nH]cnc2n1	1.2	.	.	102	0.0	-8	i
O=C(Nc1ccccc1F)N(CCCN1CCOCC1)Cc1cc2cc3c(cc2[nH]c1=O)OCCO3	0.92	82	-23	96	-0.7	2	i
Cc1c(NC(=O)OCCNC(=O)COc2c(Cl)cccc2Cl)sc(=S)n1C	0.81	108	40	109	-2.4	-7	i
CNC(=O)CSc1nnc(-c2ccccn2)n1Cc1ccco1	0.97	.	.	95	.	.	i
CCOC(=O)N1CCC(NC(=O)Cn2ncc3ccccc32)CC1	0.96	.	.	219	-0.6	2	i
CSc1nc2ccccc2cc1/C=C(\C#N)c1ccc(Cl)cc1Cl	1.1	86	-14	100	-1.8	0	i
COc1ccccc1NC(=O)/C=C/C(N)=O	0.97	160	3	107	-1.1	-1	i
Cc1ccc2c(c1)nnn2C1CCN(C(=O)NC23CC4CC(CC(C4)C2)C3)CC1	0.94	149	45	98	0.0	-5	i
O=C(c1ccccn1)N1CC=C(c2ccccc2)CC1	1	131	-6	101	.	2	i
CCN(CC)CCCNC(=O)CCc1ccccc1	1.1	61	-56	98	-1.5	-1	i
O=C(CCNS(=O)(=O)c1ccc(Cl)cc1)OCC(=O)c1ccc[nH]1	0.92	.	.	102	.	.	i
Cc1ccc(NC(=S)N(CCCN2CCC(C)CC2)Cc2ccco2)cc1	0.91	.	.	104	.	2	i
COC(=O)CSc1nnc(CNC(=O)Cc2ccccc2)n1C	0.95	.	.	106	-2.2	-2	i
COC(=O)c1[nH]c2cccc(Cl)c2c1NC(=O)CN1CCCCC1C (configuration not stated)	0.9	56	21	101	-0.8	-6	i
Cc1ccc(S(=O)(=O)N2CCCCC2)cc1C(=O)Nc1ccc2cn[nH]c2c1	1	107	39	72	-3.0	-1	i
COc1ccccc1NC(=O)CSc1nnc(C)n1CCc1ccccc1	1.3	.	.	93	-0.3	0	i
CCOC(=O)c1nnn(-c2nonc2N)c1COc1c(C=O)cccc1OC	0.88	160	8	100	0.2	-3	i
COc1ccccc1CCc1nnc(CCC(=O)NCCOc2cccnc2)o1	0.94	.	.	102	.	-3	i
CCCCCC(=O)OC(CN1CCCCCC1)CN1CCCC1=O (configuration not stated)	1.1	.	.	97	.	.	i
O=C(Cn1nnc(-c2ccccc2)n1)NNC(=O)c1ccco1	0.92	.	.	106	.	-3	i
Fc1ccc(-c2cc3nc4c(c(N5CCOCC5)n3n2)CCCC4)cc1	0.86	51	-29	100	-0.5	7	i
COc1ccc(N2Cc3ccccc3/C2=N\C(=O)Nc2ccccc2)cc1	0.88	.	.	100	.	-2	i
CCC(C)NC(=O)CC1Oc2ccc(C)cc2NC1=O (configuration not stated)	0.77	110	29	102	-0.3	3	i
O=C(COc1ccc2oc(-c3ccccc3)cc(=O)c2c1)NCc1ccco1	0.99	.	.	100	-1.2	-10	i
CN1CCN(C(=S)NC(=O)c2ccc(S(=O)(=O)N3CCOCC3)cc2)CC1	0.91	.	.	93	.	-2	i
CSc1ccccc1NC(=O)CSc1n[nH]c(C)c1[N+](=O)[O-]	0.95	114	-8	98	.	6	i
